# TR SRC2 fluor cs – counter-screen for TRb-SRC2 inhibitors: fluorescence interference | TRb/SRC2 Texas Red total fluorescence interference | AID 1479 | 280,000 compounds, 0.29% hits | Potency, µM (series often up to 106 µM), for the others: at the highest dose fluorescence change, negative = quenching; active means well fitted curve in either direction with a large enough effect; inconclusive means small, poorly fitted or top-dose-only effect; further: on the % scale 0 is the no-effect control and ±100 the full control effect
#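 Human TRb ligand-binding domain at 0.6 uM with 20 nM Texas Red SRC2 peptide in Tris buffer containing 1 uM T3 and 5% DMSO, incubated with compound 5 h at ambient temperature. Total fluorescence (555/632 nm) calculated as parallel + 2 × perpendicular.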
# LMNA splice mod – LMNA splicing modulation. HeLa LMNA splicing GFP/RFP minigene ratio, 48 h. Potency, µM (doses to about 46.1 µM), for the others: top-dose ratio change, negative = inhibition, usual class: inhibitors. 200,000 compounds, 0.01% hits; active means well fitted inhibition curve with a large enough effect in the signal ratio, with a control signal flat, not every such curve was filed as active; inconclusive means small, poorly fitted or top-dose-only effect, or effect the other way, or a change in a side signal; the % refers to the signal ratio; further: on the % scale 0 is the no-effect control and ±100 the full control effect
#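 S3 HeLa stable clones carrying a lamin A-EGFP splicing minigene plus DsRed2 were seeded at 600 cells/well in Opti-MEM with 2% FBS, pin-dosed and incubated 48 h at 37°C. Acumen cytometry (488 nm) gave the GFP/RFP total-intensity ratio.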
# SMN2 splice enh – increases expression of the SMN2 splice variant. Potency, µM (series often up to 46.1 µM), for the others: at the highest dose activity change, positive = activation, usual class: activators. HEK293 SMN2-luciferase splicing reporter, luminescence, 30-36 h. 210,000 compounds, 2.8% hits. AID 1458; further: % of control where 0% means no effect; nearly all actives have a fitted effect of over 55% in size
#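 qHTS luciferase splicing reporter: luminescence rises when SMN2 exon 7 is included in transfected HEK293 cells. Compound exposure lasted 30-36 h at 37C, with 4.5 mM final sodium butyrate as control, followed by a ONE-Glo read.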
# TRb SRC2 PPI – disrupts binding of human TR beta to SRC2; P10828; TRbeta-SRC2 peptide binding, fluorescence polarization; receptor liganded with 1 µM T3; Potency, µM (highest dose often 106 µM), inactives show at the highest dose activity change, negative = inhibition, actives largely listed as inhibitors; 280,000 compounds, 0.065% hits; AID 1469;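 further: plate controls were bound peptide for no effect and peptide without receptor for full effect; nearly all actives have a fitted effect of over 50% in size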
#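 Quantitative HTS by FP: 0.6 uM TRb LBD, 20 nM labeled SRC2 20-mer, 1 uM T3, 5% DMSO; 5 hr ambient incubation; % activity per concentration and potencies from concentration series.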
# JMJD2E inh – JMJD2E (human) inhibition | AID 2147 | JMJD2E catalytic domain, FDH-coupled NADH fluorescence (FDH is formaldehyde dehydrogenase) | Potency, µM (highest dose often 57.1 µM), for inactives: at the top dose activity change, negative = inhibition, actives largely listed as inhibitors | 230,000 compounds, 1.6% hits; active means well fitted inhibition curve with a large enough effect, not every such curve was filed as active; inconclusive means small, poorly fitted or top-dose-only effect, or another doubt; inactive means no such curve, though single readings can be large or run the other way;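 further: 0% = wells with enzyme and -100% = buffer wells without enzyme; nearly all actives have a fitted effect of over 50% in size; many of its hits are not listed in these tables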
# Target sequence (B2RXH2 1-337 limits assumed): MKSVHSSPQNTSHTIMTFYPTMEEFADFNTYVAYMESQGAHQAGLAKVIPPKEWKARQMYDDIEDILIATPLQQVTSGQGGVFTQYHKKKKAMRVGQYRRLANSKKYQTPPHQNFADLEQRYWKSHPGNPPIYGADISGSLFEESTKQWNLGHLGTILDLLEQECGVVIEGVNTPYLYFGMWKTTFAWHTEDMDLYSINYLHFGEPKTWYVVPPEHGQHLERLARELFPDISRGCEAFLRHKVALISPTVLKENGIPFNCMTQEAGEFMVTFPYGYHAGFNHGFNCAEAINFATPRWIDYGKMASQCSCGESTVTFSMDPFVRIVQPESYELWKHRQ
# ALDH1A1 block – inhibitors of human aldehyde dehydrogenase 1A1 | P00352 | Purified ALDH1A1, NADH fluorescence, propionaldehyde substrate | Potency, µM (series often up to 75.3 µM), inactives show at the top dose activity, negative = inhibition, most hits filed as inhibitors | 220,000 compounds, 7.3% hits | AID 1030; active means well fitted inhibition curve with a large enough effect, not every such curve was filed as active; inconclusive means small, poorly fitted or top-dose-only effect, or another doubt; inactive means no such curve, though single readings can be large or run the other way;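 further: plate controls were no enzyme wells and a reference inhibitor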
# Target sequence (P00352 whole entry, looked up): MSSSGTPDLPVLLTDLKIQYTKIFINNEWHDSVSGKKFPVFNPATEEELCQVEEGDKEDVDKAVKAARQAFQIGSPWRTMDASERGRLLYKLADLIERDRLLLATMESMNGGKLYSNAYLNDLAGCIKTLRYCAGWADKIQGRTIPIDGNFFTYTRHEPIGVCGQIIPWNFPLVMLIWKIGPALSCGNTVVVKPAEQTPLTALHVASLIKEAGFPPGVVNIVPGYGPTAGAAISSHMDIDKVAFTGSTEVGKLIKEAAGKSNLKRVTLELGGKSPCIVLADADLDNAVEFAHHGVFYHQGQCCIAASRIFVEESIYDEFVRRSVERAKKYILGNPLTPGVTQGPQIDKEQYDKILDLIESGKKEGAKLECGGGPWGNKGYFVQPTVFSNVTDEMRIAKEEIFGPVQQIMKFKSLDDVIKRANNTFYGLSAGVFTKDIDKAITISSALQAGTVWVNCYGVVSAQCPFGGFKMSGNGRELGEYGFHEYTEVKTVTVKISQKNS
# RECQ1 inh – inhibitors of human RECQ1 DNA helicase. P46063. RECQ1 DNA unwinding, red fluorescence kinetic read. 240,000 compounds, 0.54% hits. Potency, µM (top dose mostly 57.3 µM), without a hit: at the top dose activity, negative = inhibition, hits mostly inhibitors;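 further: plate controls were vehicle for no effect and no enzyme for full effect; nearly all actives have a fitted effect of over 30% in size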
#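 50 nM RECQ1T1 preincubated 15 min with compound in Tris pH 8.0 buffer with MgCl2, DTT, Tween-20 and 2.5 ug/ml poly(dI-dC); started with 200 nM TAMRA/BHQ-2 forked duplex and 2 mM ATP. Unwinding read as fluorescence (525/598 nm), two reads 2 h apart.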
# * = called active by the depositor; i = inactive; u = inconclusive; x = not tested or not shown; & = joins results of further samples; [ ] = dose if it differs, or a comment. Unless noted, the call rests on the fitted dose curve; in most records, active means well fitted curve in the direction sought with a large enough effect; inconclusive means small, poorly fitted or top-dose-only effect, or another doubt; inactive means no such curve, though single readings can be large; an effect the other way counts as inactive or inconclusive. Potency means the concentration at half of the fitted maximal effect.
SMILES,TR SRC2 fluor cs,LMNA splice mod,SMN2 splice enh,TRb SRC2 PPI,JMJD2E inh,ALDH1A1 block,RECQ1 inh
Cn1c(SCC(=O)N2CCOCC2)nnc1-c1cccc(NC(=O)c2ccccc2F)c1,-2%,1%,10%,-8%,-6%,25µM*,5%
COc1ccc(Cl)cc1N(CC(=O)Nc1ccccc1C(=O)NCc1ccco1)S(C)(=O)=O,-10%,-6%,14%,2%,u,u,-19%
Cc1csc2c(N3CCN(C(=S)Nc4ccc(F)cc4F)CC3)ncnc12,-2%,x,x,-2%,-7%,x,9%
O=C(CNc1cc(S(=O)(=O)N2CCCC2)ccc1OCC(F)(F)F)Nc1cccc(C(F)(F)F)c1,0%,u,-54%[inhibitor],3%,-9%,8%,-8%
N#Cc1ccc(/C=N/NC(=O)c2ccccc2F)cc1,-1%,2%,u,-10%,-3%,16%,-7%
O=C(Nc1ccccc1Cl)NC1(C(=O)N2CCCC2)CCCCC1,-4%,-15%,-15%,-1%,2%,-1%,-3%
C(=C\c1ccccc1)/C=N/Nc1nncc(-c2ccccc2)n1,12%,-1%,-11%,16%,2%,12%,-2%
Cc1ccc(/C=C/C(=O)Nc2cc(S(=O)(=O)N3CCCCCC3)ccc2OCC(F)(F)F)o1,2%,-15%,-9%,1%,u,28µM*,-3%
Cc1ccc(-n2c(=O)cc(N3CCN(Cc4ccccc4)CC3)[nH]c2=O)cc1,-2%,-6%,-8%,-17%,-6%,-12%,-2%
O=C(O)CC12CC3CC(C1)CC(n1ncc(NCc4ccco4)c(Cl)c1=O)(C3)C2,3%,x,x,4%,-19%,x,-3%

# Random excerpt: seven entries already listed
SMILES,TR SRC2 fluor cs,LMNA splice mod,SMN2 splice enh,TRb SRC2 PPI,JMJD2E inh,ALDH1A1 block,RECQ1 inh
O=C(O)CC12CC3CC(C1)CC(n1ncc(NCc4ccco4)c(Cl)c1=O)(C3)C2,3%,x,x,4%,-19%,x,-3%
O=C(Nc1ccccc1Cl)NC1(C(=O)N2CCCC2)CCCCC1,-4%,-15%,-15%,-1%,2%,-1%,-3%
COc1ccc(Cl)cc1N(CC(=O)Nc1ccccc1C(=O)NCc1ccco1)S(C)(=O)=O,-10%,-6%,14%,2%,u,u,-19%
N#Cc1ccc(/C=N/NC(=O)c2ccccc2F)cc1,-1%,2%,u,-10%,-3%,16%,-7%
O=C(CNc1cc(S(=O)(=O)N2CCCC2)ccc1OCC(F)(F)F)Nc1cccc(C(F)(F)F)c1,0%,u,-54%[inhibitor],3%,-9%,8%,-8%
Cc1ccc(-n2c(=O)cc(N3CCN(Cc4ccccc4)CC3)[nH]c2=O)cc1,-2%,-6%,-8%,-17%,-6%,-12%,-2%
Cc1ccc(/C=C/C(=O)Nc2cc(S(=O)(=O)N3CCCCCC3)ccc2OCC(F)(F)F)o1,2%,-15%,-9%,1%,u,28µM*,-3%

# Further compounds.
SMILES,TR SRC2 fluor cs,LMNA splice mod,SMN2 splice enh,TRb SRC2 PPI,JMJD2E inh,ALDH1A1 block,RECQ1 inh
Cc1cc(-c2nnc(SCC(=O)N3C(C)CCCC3C)o2)no1 (stereo not drawn),-3%,-5%,-16%,-16%,2%,-12%,-11%
c1ccc(CN(Cc2ccccc2)c2ncnc3c2nnn3Cc2ccccc2)cc1,5%,x,x,-5%,u,x,i
Cc1ccc2c(c1)N(C(C)C(=O)NCc1ccccn1)C(=O)CO2 (stereo not drawn),-1%,x,x,-1%,3%,x,0%
O=C(NNC1=Nc2cc([N+](=O)[O-])ccc2OC1)c1ccccc1Cl,-6%,x,x,-3%,3%,x,-7%
Cc1nc(-c2ccccc2)cn2c1nc1ccccc12,1%,u,-22%,-2%,u,u,1%
CC(Nc1[nH]c(=O)n(C)c(=O)c1N=O)c1ccccc1 (stereo not drawn),-4%,x,-40%[inhibitor],-11%,-21%,-8%,-5%
Cc1ccccc1NC(=O)NC1(C(=O)NCCCN2CCOCC2)CCCCC1,-9%,-11%,-8%,0%,-6%,4%,4%
CCn1c(CSc2nc3ccccc3[nH]2)nc2cc(C(=O)O)ccc21,u,-4%,26%,u,u,u,-2%
CNC(=S)Nc1cccc2[nH]ncc12,-1%,-7%,-4%,-11%,3%,1%,-2%
CCOc1[nH]c(/N=C/c2ccco2)c(C#N)c1C#N,-4%,-2%,-17%,-3%,-16%,20µM*,i
Cc1cccc2cc3c(N)c(C(=O)N4CCCc5ccccc54)sc3nc12,-7%,u,-33%[inhibitor],4%,-2%,14%,-3%
CC1(C)O[C@@H]2C[C@H]3[C@H]4C[C@H](F)C5=CC(=O)C=C[C@@]5(C)[C@@H]4[C@H](O)C[C@]3(C)[C@]2(C(=O)CO)O1,-2%[53 µM],u,3%[20.6 µM],4%[53 µM],3%[25.5 µM],-6%[20.9 µM],i
NC(N)=Nc1cc2ccccc2c2ccccc12,2%,u,x,1%,-30%,-15%,21%
CCOc1ccccc1NC(=O)NC1(C(=O)N2CCOCC2)CCCCC1,-7%,5%,10%,-7%,0%,6%,-7%
CC(C)(C)c1ccc(S(=O)(=O)N2CCCCC2C(=O)NCc2ccccn2)cc1 (stereo not drawn),-5%,u,-54%[inhibitor],-19%,-6%,4µM*,3%
OCCN(/C=N/c1nc(-c2ccc(Br)cc2)cs1)CCO,-4%,-11%,14%,-10%,5%,8%,-6%
CC(C)(C)OC(=O)N1CCC(CNC(=O)c2ccc(F)cc2F)CC1,-2%,x,x,0%,-5%,x,i
CCN(CC)C(=O)CSC(Nc1ccc(F)cc1)=C(C#N)C#N,19%,x,x,25%,5%,x,u
Cc1ccc(NNC(=O)c2ccno2)cc1C,-2%,x,x,-3%,7%,x,5%
CN(C1CCCCC1)S(=O)(=O)c1ccc(NC(=O)C2CCCCC2)cc1,3%,u,u,-13%,0%,-12%,-12%
CCOc1ccc(/C=C(\C#N)C(=O)NCC2CCCO2)cc1OCC (stereo not drawn),-2%,-28%,-19%,-8%,-26%,28µM*,1%
CN(C)CCCN(C(=O)/C=C/c1cccs1)c1nc2c(F)cccc2s1,-1%,u,-64%[inhibitor],-4%,2%,2%,8%
O=C(CSc1ncn[nH]1)Nc1c(Br)cc([N+](=O)[O-])cc1Br,-6%,-7%,6%,-6%,-4%,2%,-15%
CC(=O)Nc1ccc(-c2nnc(SCc3ccc(C)cc3)n2C)cc1,2%,1%,-21%,-2%,-2%,-15%,i
CSc1nnc(NC(=O)CCc2ccccc2)s1,0%,-2%,-7%,-13%,-6%,u,2%
CC(OC(=O)c1cc(=O)[nH]c2ccccc12)C(=O)c1ccccc1 (stereo not drawn),-6%,u,19%,-9%,u,-15%,-2%
CN(C)c1ncnc2c1NC1=C(S2)C(=NCCCC(=O)O)CC(C)(C)C1,11%,-1%,-11%,-4%,u,u,u
COc1cccc(-c2ccc(-c3noc(-c4cccs4)n3)c(OC)n2)c1,-2%,5%,x,-5%,u,u,i
COc1cccc(-c2csc(NNC(=O)c3cccs3)n2)c1,-2%,x,x,0%,u,x,-12%
CC(C)(C)OC(=O)N1CCC(CNC(=O)c2ccc(F)cc2)CC1,-1%,x,x,4%,3%,x,-7%
CC(=O)N1CCc2cc(C(=O)CN3CCCCC3)ccc21,-3%,0%,10%,-1%,u,22µM*,x
COc1ccc2c(c1)CCc1sc(NC(=O)c3ccc(C)cc3)nc1-2,-3%,-2%,-31%[inhibitor],-3%,u,u,-14%
CCn1c(SCC(=O)Nc2cccc(C)c2)nc2c(c1=O)SC(C)C2 (stereo not drawn),0%,-15%,-10%,7%,-4%,20µM*,-2%
O=c1[nH]cnc2c1ncn2[C@H]1CC[C@@H](CO)O1,0%,u,4%,0%,4%,3%,-6%&7%&9%
O=c1c2c3nc4ccccc4nc3n(/N=C/c3cccs3)c2ncn1-c1ccccc1,-2%,-10%,10%,-7%,-16%,-1%,9%
CC(=O)Nc1ccc(NC(=O)C2CCCN2C(=O)Nc2ccc(F)c([N+](=O)[O-])c2)cc1 (stereo not drawn),-1%,-12%[46 µM],1%,0%,2%,1%,-4%
O=C1CNC(=O)/C1=C\N1CCN(C(c2ccccc2)c2ccccc2)CC1,-1%,7%,-5%,-3%,1%,-14%,-2%
Cc1cc2cc(CNC(=O)CCC(=O)O)ccc2n1C,u,u,22%,-20%,u,u,44%[activator]
CCN(CC)C(=O)CSC(Nc1cccc(F)c1)=C(C#N)C#N,13%,x,x,20%,1%,x,-27%
O=c1n(CC2CO2)c(=O)n(CC2CO2)c(=O)n1CC1CO1 (stereo not drawn),-2%[201 µM],x,-48%[inhibitor],11%[201 µM],x,-2%,-9%
N#C/C(=C\c1ccc(-c2ccccc2)cc1)c1nc(-c2ccco2)cs1,-22%,-5%,-18%,7%,-2%,-2%,-10%
CC(C)c1ccc(-c2c(C#N)c(N)nc3c2CCCCC3)cc1,-2%,7%,-9%,1%,u,-3%,i
COc1cc(/C=N/NC(=O)c2ccc3ccccc3c2)ccc1Oc1ccc([N+](=O)[O-])cn1,-3%,u,-34%[inhibitor],-5%,-5%,11%,-2%
O=C1C2=C(SCCS2)C(=O)N1CCCO,-3%,2%,-5%,-4%,2%,u,-3%
COc1cc2c(cc1OC)CN(C(=O)CSc1nnc3scc(-c4ccccc4)n13)CC2,-4%,3%,-8%,-2%,u,u,10%
Cc1nc2ccc(NC(=O)CCS(=O)(=O)c3ccccc3)cc2s1,-2%,-18%,16µM*,-6%,-1%,-9%,-1%
CCOc1ccc(N/C=C/C(=O)c2ccc(OC)cc2)c([N+](=O)[O-])c1,-2%,-11%,-25%,12%,10%,u,1%
Cc1ccc(SC(C)C(=O)NCc2ccncc2)cc1 (stereo not drawn),-5%,4%[46 µM],-3%,0%,-13%,-3%,0%
COc1ccc(OCCSc2nnc(CCNC(=O)c3ccc(Cl)c(Cl)c3)n2C)cc1,2%,8%[0.0737 µM],-23%,-22%,6%,-4%,-19%
CC(=O)Nc1ccc(S(=O)(=O)Nc2cccc3[nH]ncc23)cc1,0%,8%[46 µM],-6%,3%,-1%,7%,i
Cn1c(CCNC(=O)c2ccc(Cl)c(Cl)c2)nnc1SCc1ccc(Cl)c(Cl)c1,1%,-12%,-26%,-7%,6%,u,-1%
O=S(=O)(NC1CCCCC1NCc1ccco1)c1ccccc1 (stereo not drawn),-3%,13%,-13%,0%,37%,u,-6%

# Compound activity: PubChem BioAssay, National Center for Advancing Translational Sciences (NCATS)

# These rows are one share of the data (hit frequency here may not be typical).
